# Six1-Eya2 blk: inhibitors of human Six1/Eya2 interaction; AlphaScreen GST-Six1/His-Eya2 binding, biochemical; active compounds read low; control for the full effect not named in the record; Q15475+O00167; activity change, % (no concentration beside the values); AID 651725; 360,000 tested, 0.56% active; in the data active = activity change below about -65%; inconclusive = about -30% to -65%; inactive = above about -30%; further: on the % scale 0 is the no-effect control and ±100 the full control effect
# Target sequence (O00167 whole entry, looked up): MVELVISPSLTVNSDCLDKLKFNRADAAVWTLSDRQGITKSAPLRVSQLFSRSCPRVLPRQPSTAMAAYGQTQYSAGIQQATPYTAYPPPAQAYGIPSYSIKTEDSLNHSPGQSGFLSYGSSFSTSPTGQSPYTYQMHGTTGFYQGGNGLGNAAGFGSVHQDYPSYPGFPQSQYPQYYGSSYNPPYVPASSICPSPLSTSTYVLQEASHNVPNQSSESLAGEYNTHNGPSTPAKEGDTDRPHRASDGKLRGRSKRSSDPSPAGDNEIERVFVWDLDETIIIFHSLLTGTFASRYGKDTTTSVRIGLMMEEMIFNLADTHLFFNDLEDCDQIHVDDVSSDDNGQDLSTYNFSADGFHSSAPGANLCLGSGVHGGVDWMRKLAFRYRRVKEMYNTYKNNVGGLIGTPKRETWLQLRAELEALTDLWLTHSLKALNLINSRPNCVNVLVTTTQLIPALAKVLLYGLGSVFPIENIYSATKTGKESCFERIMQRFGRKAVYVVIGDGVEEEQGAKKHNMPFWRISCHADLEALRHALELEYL
# Target sequence (Q15475 whole entry, looked up): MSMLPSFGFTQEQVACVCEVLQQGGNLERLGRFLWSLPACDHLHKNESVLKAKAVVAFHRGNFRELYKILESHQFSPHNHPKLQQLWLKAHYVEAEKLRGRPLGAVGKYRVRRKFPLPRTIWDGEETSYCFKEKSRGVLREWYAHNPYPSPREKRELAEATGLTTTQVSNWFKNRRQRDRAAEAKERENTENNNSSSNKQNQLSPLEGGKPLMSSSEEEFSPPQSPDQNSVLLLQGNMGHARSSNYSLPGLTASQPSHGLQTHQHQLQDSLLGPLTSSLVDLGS
#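 Homogeneous AlphaScreen proximity assay pairing GST-Six1 with His-tagged Eya2 (added as 5X mix: 250 nM and 500 nM) in 50 mM Tris pH 8.0, 300 mM NaCl, 1 mM TCEP. Glutathione donor and nickel acceptor beads; 1 h, 37 °C, dark.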
# D2 ag: human D2 receptor agonism in beta-arrestin assay; DiscoveRx PathHunter D2 beta-arrestin, luminescence, 90 min; 100% = 57 uM dopamine signal; P14416; 360,000 tested, 0.084% active; activation, % (test concentration not listed); AID 624465; in the data active = activation above about 40%; inconclusive = about 15% to 40%; inactive = below about 15%; further: compound concentration not given in the record; the text of the record calls up to 30% inactive
#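 DiscoveRx PathHunter D2 beta-arrestin cells (2,100/well) attached overnight, then compound-stimulated 90 min at 37 C in HBSS/10 mM HEPES/0.1% Tween-20 buffer; beta-galactosidase complementation read by luminescence after 1 h at ambient temperature. Dopamine 57 uM final (EC100) as control.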
# PINK1 expr mod: PINK1 expression modulation. PINK1 immunofluorescence, high-content cytometry, 24 h. Potency, µM (titrated, usually from 76.6 µM), for inactives: at the top dose activation (PINK1 increase), usual class: activators. 410,000 tested, 0.2% active; active = well fitted activation curve with a large enough effect; inconclusive = small, poorly fitted or top-dose-only effect; inactive = flat fitted curve, though single readings scatter; cell line not stated here;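 further: potency means the concentration at half of the fitted maximal effect; % of control where 0% means no effect; nearly all actives have a fitted effect of over 65% in size; a mitochondrial uncoupler was the plate control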
#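 Decision-based qHTS: stable cells, 24 h exposure to five compound concentrations, CCCP as control. Fixed cells stained for PINK1 plus nuclear, mitochondrial and cell markers, cytometer read.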
# TRPML1 agonist: agonists of human TRPML1 channel; TRPML1-expressing cells, Ca2+ dye fluorescence, FDSS; host cell line not named in the record; reference of the full effect not given here; AID 624414; 410,000 tested, 0.12% active; Q9GZU1; activation, % (test concentration not listed); in the data active = activation above about 50%; inconclusive = about 30% to 50%; inactive = below about 30%; further: 0% is about no effect; the text of the record puts the active cut at 80%
#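 Kinetic FDSS Ca2+ read in Tet-induced TRPML1-DL cells (ABD Ca8 dye plus quencher, 45-90 min RT loading): baseline, then compound, then 110 s agonist window; EC80 agonist 54-4 at 4uM final added afterwards for a 110 s antagonist window.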
# D2 potentiator: human D2 receptor positive allosteric modulation | P14416 | DiscoveRx D2 beta-arrestin cells, luminescence, 90 min; 100% = 57 uM dopamine signal | potentiation, % (no concentration beside the values) | 360,000 tested, 0.23% active | AID 624464; active = potentiation of 50% or more; inconclusive = 30% to 50%; inactive = 30% or less;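 further: compound concentration not given in the record; tested on top of an EC20 dose of dopamine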
#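 D2 cells co-treated with compound plus 50 nM dopamine (EC20) for 90 min at 37 deg C to detect potentiation. Beta-arrestin recruitment was read as enzyme-fragment luminescence after 1 h at ambient temperature. Full response was set by 57 uM dopamine.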
# TRPML1 blocker: blocks the human TRPML1 channel; Q9GZU1; TRPML1-inducible cells, Ca2+ dye fluorescence, FDSS; active compounds read low; inhibition of EC80 agonist-evoked calcium signal; 390,000 tested, 0.02% active; activity change, negative = inhibition, % (concentration not given with the values); in the data active means activity change below about -50%; inconclusive means about -30% to -50%; inactive means above about -30%;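 further: stimulus is agonist 54-4 at its EC80 concentration; on the % scale 0 is the no-effect control and ±100 the full control effect; the text of the record puts the active cut at -80%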
#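 Tet-induced TRPML1-DL cells loaded with Ca8 no-wash calcium dye were read kinetically on FDSS. Compound addition was followed by EC80 agonist 54-4 (4 uM final); inhibition was read over 110 s.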
# The depositor's hits bear a star; ? = inconclusive; . = no result given; [ ] = remark or other dose.
# Screens in order – Six1-Eya2 blk	D2 ag	PINK1 expr mod	TRPML1 agonist	D2 potentiator	TRPML1 blocker
- Cc1cc(C)c(C(=O)c2ccc(C(=O)N(C(C)C)C(C)C)cc2)c(C)c1
    -1	-4.1	3.5%[38.3 µM]	3.8	-23	56
- O=C(C(O)c1ccccc1)N1N=C(c2ccccc2)CC1(O)C(F)(F)F (stereo unspecified)
    4	-7.3	2.2%	-0.6	-5	-5
- c1cncc(-c2cn(C[C@H]3CC[C@@H]([C@@H]4CC[C@H](Cn5cc(-c6cccnc6)nn5)O4)O3)nn2)c1
    -6	-2.1	1.7%	-0.2	-4	-16
- CC(=O)NC(CCS(C)(=O)=O)C(=O)Nc1c(F)cccc1F (stereo unspecified)
    7	2.3	2.8%	-0.1	10	24
- C=CCOc1ccc(/C=C/C(=O)OCC(=O)NC2CCCCCC2)cc1
    -2	-6.0	2.5%	1.4	-14	105
- COc1ccc(/C=N/Nc2nc3ccccc3[nH]2)cc1OC
    -13	1.5	-1.5%	0.2	-9	12
- COCC(=O)N[C@@H]1c2cc(OC)c(OC)cc2C[C@H]1OCc1ccccc1
    -1	0.1	-0.3%	-0.7	-1	-1
- COc1ccc([C@H]2CN(Cc3ccccc3)C(=O)[C@@H]2CC(=O)Nc2ccccc2)cc1
    -3	-0.8	-0.5%	.	.	.
- CC(C)CCNC(=O)C1CCC(CNS(=O)(=O)c2ccc(Cl)cc2)CC1 (stereo unspecified)
    4	-2.1	0.9%	-0.3	-7	6
- COc1cccc2oc3ccc(C#Cc4ccccn4)cc3c(=O)c12
    -3	0.7	1.8%	-0.5	-8	12
- C#CCOC(=O)C[N+](C)(C)CC#Cc1ccccc1
    11	-18	-1.4%	1.3	-10	-8
- Cn1nc(C(F)(F)F)cc1Oc1ncc(C(F)(F)F)cc1Cl
    18	-1.5	0.4%	0.7	-9	-5
- CSCCC(NS(=O)(=O)c1ccccc1F)C(=O)Nc1ccncc1 (stereo unspecified)
    3	6.9	-0.1%	1.3	-2	19
- CC(C)c1ccc(NC(=O)C2CCN(C(=O)c3ccc(F)cc3)CC2)cc1
    .	.	-1.1%	-0.9	.	0
- Cc1c(NC(=O)Cn2nc(C(=O)O)c3ccccc3c2=O)c(=O)n(-c2ccccc2)n1C
    4	-1.0	0.7%	-0.7	1	7

# Carrying on:
# Screens in order – Six1-Eya2 blk	D2 ag	PINK1 expr mod	TRPML1 agonist	D2 potentiator	TRPML1 blocker
- Cc1ccc(C(=O)c2ccccc2C(=O)O)s1
    6	-6.9	-0.7%	0.0	25	-22
- CCN(CC)C(=O)CSc1nnc([C@H](Cc2c[nH]c3ccccc23)NC(=O)OC(C)(C)C)o1
    -3	-1.1	1.1%	3.1	2	-11
- O=C1COc2ccc(-c3cc(-c4ccc(F)cc4)c4c(n3)-c3ccccc3OC4)cc2N1
    .	.	0.4%	-0.3	.	21
- Cc1cccc(C)c1NC(=O)CSc1nnc(-c2ccoc2C)n1C
    19	-3.4	-0.4%	-0.2	-6	0
- CC(=O)Nc1cc(NC(C)=O)cc(C(=O)OCC(=O)Nc2ccc(S(=O)(=O)NC3=NCCCCC3)cc2)c1
    -1	-3.1	1.1%	-0.8	5	-16
- Cc1ccccc1S(=O)(=O)Cc1ccc(C(=O)NC2CC2)o1
    3	2.3	-0.9%	1.7	-4	47
- Nc1nc(SCC(=O)N2CCCC2)[nH]c(=O)c1NC(=O)c1ccco1
    5	-7.0	0.0%	0.0	-1	17
- CC1=C(C(=O)Nc2ccccc2F)C(c2cccs2)C2=C(CCCC2=O)N1 (stereo unspecified)
    -3	-2.5	2.7%	0.1	-9	-10
- CCOC(=O)C1CCCN(C(=O)C(=O)c2cn(CC(=O)N3CCOCC3)c3ccccc23)C1 (stereo unspecified)
    -1	0.3	-0.3%	0.4	0	4
- C[C@H](OC(=O)NCc1ccc(C(F)(F)F)cc1)[C@@H]1O[C@@]2(C)CCC[C@@H]1O2
    4	1.4	0.7%	-0.3	-3	12
- CCCCNC(=O)N1CCN(Cc2cccc(F)c2)CC1
    2	1.3	1.8%	-0.2	-5	6
- Cc1ccccc1OCCSc1nc2ncnc(N)c2[nH]1
    -2	-0.9	2.6%	-0.2	3	1
- CC(C)(C)OC(=O)N1CCCN(C(c2cc3ccccc3o2)c2nnnn2C(C)(C)C)CC1 (stereo unspecified)
    -11	.	4.6%	25	.	.
- COCCNCCOCCOc1cccc(OC)c1
    1	-1.4	-1.7%	-1.2	-15	27
- O=C(N/N=C/c1ccc(F)cc1)c1cccc(NC(=O)c2ccc(F)cc2)c1
    ?	-2.8	?	0.9	-10	6

# (list continues)
# Screens in order – Six1-Eya2 blk	D2 ag	PINK1 expr mod	TRPML1 agonist	D2 potentiator	TRPML1 blocker
- CC1(C)C[C@H]2C3=CCC4[C@@]5(C)CC[C@H](O)[C@](C)(CO)C5CC[C@@]4(C)[C@]3(C)CC[C@@]2(C)[C@H](O)[C@@H]1O (stereo partly specified)
    -2	-3.5	1.9%	.	-31	.
- CC(=O)Nc1cccc(-c2cc(-c3c(Cl)cccc3Cl)no2)c1
    -7	-2.1	0.6%	1.1	-7	15
- CN(C)S(=O)(=O)c1cccc(C(=O)OCC(=O)Nc2ccccc2OC(F)F)c1
    2	-4.2	1.4%	0.5	-8	-1
- Cc1sc(NC(=O)c2ccco2)c(C(=O)c2ccc(Cl)cc2)c1C
    -21	-6.2	2.3%	0.5	-24	24
- O=C(Cc1ccc(Cl)cc1)Nc1ccc2oc(=O)ccc2c1
    2	-2.1	-0.2%	0.5	-3	-20
- CCOC(=O)C1CCN(c2c(C(=O)c3ccccc3)cnc3ccc(CC)cc23)CC1
    -1	-2.1	6.1%	2.0	3	31
- C[C@@H]1CN([C@H](C)CO)C(=O)CCCn2nncc2CO[C@H]1CN(C)Cc1ccc(Oc2ccccc2)cc1
    -11	-2.5	1.6%	-0.6	-1	-4
- COc1ccc(-c2ccc3c(c2)O[C@@H](CN(C)C(=O)c2ccccc2F)[C@@H](C)CN([C@@H](C)CO)S3(=O)=O)cc1
    -2	1.3	2.5%	.	.	.
- Cc1nn(C)c(C(=O)NNC(=S)NCc2ccco2)c1Cl
    -7	-4.4	0.5%	-0.8	-23	17
- Cc1ccc(C)c(OCCC(=O)Nc2cccc(S(=O)(=O)N3CCCC3)c2)c1
    -6	3.7	0.6%	3.2	5	9
- COc1ccc(C(CC(=O)c2ccc(C)cc2)C(C#N)C#N)cc1OC (stereo unspecified)
    3	1.2	-3.8%	1.1	-13	30
- CC(C)c1csc(CN2CCC(CCC(=O)NCC3CCCO3)CC2)n1 (stereo unspecified)
    6	-2.7	0.4%	0.0	-10	27
- O=C(N/N=C/c1cccc(O)c1)N/N=C/c1cccc(O)c1
    -20	1.8	0.2%	-1.0	3	4
- O=C(C[C@@H]1C/C=C\CCC(=O)O[C@H](c2ccccc2)CNC1=O)N[C@H](CO)Cc1ccccc1
    -1	-3.0	-1.3%	-0.6	-3	-1
- COCCn1c(SCC(=O)Nc2ccc(F)cc2)nc2ccccc2c1=O
    -5	-4.8	0.9%	0.6	-5	21

# Next results.
# Screens in order – Six1-Eya2 blk	D2 ag	PINK1 expr mod	TRPML1 agonist	D2 potentiator	TRPML1 blocker
- CC(C)(C)SCCNC(=O)CSc1ccccc1
    3	-5.3	-5.0%[38.3 µM]	-0.8	-7	4
- N#Cc1ccsc1NC(=O)c1cnccn1
    -5	-2.2	-1.7%	0.2	-21	2
- O=C(c1ccccc1)N1CCN(CC(O)COc2cccc3ccccc23)CC1 (stereo unspecified)
    -2	2.8	2.5%	-0.6	-26	-27
- Cc1cc(=O)c(C(=O)O)cn1Nc1ccc(Cl)cc1
    0	0.0	-1.0%	1.6	5	-19
- COc1ccc(-c2nc3ccccn3c2CN2CCN(c3ccccc3F)CC2)cc1
    -18	-6.7	?	2.8	-28	28
- COc1ccc(OC)c(NC(=O)N2CC3CCCN3c3ccccc32)c1 (stereo unspecified)
    .	.	0.2%	1.0	.	8
- O=C(Nc1ccc2oc(-c3ccncc3)nc2c1)c1c(F)c(F)c(F)c(F)c1F
    -2	-1.8	-1.1%	-0.1	-3	11
- Cc1cc(NC(=O)CSc2ncn[nH]2)no1
    1	-3.0	-0.3%	-0.6	0	-5
- COCCCNC(=O)/C(=C\c1cccn1C)NC(=O)c1cccs1
    -4	0.4	2.6%	-1.0	-5	-7
- OC(CNCC1COc2ccccc2O1)COc1ccc(Cl)cc1 (stereo unspecified)
    2	-2.1	2.7%	0.6	-4	18
- C=CCSc1nnc(NC(=O)c2ccc(N3CCCC3=O)cc2)s1
    3	2.3	1.8%	1.6	1	9
- CCOC(=O)/C=C(\C)N1N=C(c2ccccc2)CC1c1ccccc1 (stereo unspecified)
    5	-4.3	0.4%	-0.2	-4	2
- CCSc1nnc(NC(=O)CCc2ccccc2)s1
    5	-0.6	-0.7%[38.3 µM]	0.2	-4	-5
- COc1ccc(O)c(/C=N/NC(=S)Nc2cccc(S(=O)(=O)N(C)C)c2)c1
    -90*	-2.8	-1.9%	-0.4	-35	-3
- C/C(=N\NC(=O)CCc1ccccc1)C1C(=O)c2ccccc2C1=O
    ?	-9.8	0.3%	0.0	-16	-14

# Following part.
# Screens in order – Six1-Eya2 blk	D2 ag	PINK1 expr mod	TRPML1 agonist	D2 potentiator	TRPML1 blocker
- Cc1ccc(-n2c(Cc3cccn3C)nnc2SCC(=O)Nc2cc(C)on2)cc1
    -16	2.3	-3.6%[38.3 µM]	1.6	-11	4
- O=C(OCC1OC2OC3(CCCCC3)OC2C2OC3(CCCCC3)OC12)c1ccccc1 (stereo unspecified)
    1	1.4	?	3.0	-12	5
- COc1ccc(/C=N/n2cnn(Cc3ccccc3Cl)c2=S)cc1OC
    -11	0.3	0.0%	2.1	2	8
- O=c1cnn(Cc2ccc(F)cc2)c2ccccc12
    3	-1.8	-1.9%	0.1	-1	-15
- C=CCn1c(SCC(=O)c2ccc(O)c(O)c2)nnc1-c1ccccc1OC
    -4	0.0	-0.8%	0.9	0	40
- O=C(Nc1cc(C(F)(F)F)ccc1-n1cncn1)c1ccc(Br)cc1
    4	-1.6	-1.0%	-0.3	-7	8
- Cc1cc(C(=O)COC(=O)[C@H](C)NC(=O)c2ccco2)c(C)n1Cc1ccco1
    -12	-4.2	-1.1%	0.7	-4	7
- CC(C)c1ccc2c(c1)[C@H]1OCC[C@H]1[C@@H](c1cccs1)N2
    -18	1.2	3.3%	-0.7	5	-1
- O=C(COc1c(F)c(F)cc(F)c1F)NC(=O)NC1CCCC1
    8	-2.0	-1.5%	1.3	-9	-8
- CCOC(=O)c1ccc(NC(=O)N2CCN(c3ccccn3)CC2)cc1
    7	1.0	1.1%	-0.2	3	0

# Reprinted at random: 3 entries already listed
# Screens in order – Six1-Eya2 blk	D2 ag	PINK1 expr mod	TRPML1 agonist	D2 potentiator	TRPML1 blocker
- O=C(c1ccccc1)N1CCN(CC(O)COc2cccc3ccccc23)CC1 (stereo unspecified)
    -2	2.8	2.5%	-0.6	-26	-27
- C=CCOc1ccc(/C=C/C(=O)OCC(=O)NC2CCCCCC2)cc1
    -2	-6.0	2.5%	1.4	-14	105
- COc1ccc(C(CC(=O)c2ccc(C)cc2)C(C#N)C#N)cc1OC (stereo unspecified)
    3	1.2	-3.8%	1.1	-13	30

# Bioassay records from PubChem BioAssay.
